Screening data: PubChem, Fisher Drug Discovery Resource Center
NPYLR7 agonist: agonists of mosquito NPYLR7 receptor, primary screen, cell-based, Aedes aegypti, calcium fluorescence, mosquito biting behavior; 270,000 compounds, 0.15% hits; HEK293T NPYLR7/Galpha15, GCaMP6s calcium fluorescence; activation, % at 10 µM; in the data active = activation above about 40%;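 note: 0% = vehicle and 100% = reference agonist at the receptor; some compounds past the cut are filed as inactive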
NPYLR7 agonist max-min: second read-out of NPYLR7 agonist, no call of its own (marks repeat the call); activation, %; measured here: Max-Min RFU normalised activation; some inactives read as strong as hits;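 span of the calcium signal over five minutes; 0% = vehicle and 100% = native peptide agonist; compound fluorescence can raise it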
Starred values were filed as active, the others as inactive; & = joins results of further samples.

SMILES | NPYLR7 agonist | NPYLR7 agonist max-min
Cc1cccc(C2SCC(=O)N(CC(=O)N3CCOCC3)c3c2c(C(C)(C)C)nn3C)c1 (configuration not stated) | 10 | 4
CC1NCCc2cc(Cl)cc(Cl)c21 (configuration not stated) | 3 | 1
CC(C)c1cccc(C(C)C)c1O | -11&3&-2&0 | -17&-3&-7&-37
Cc1[nH]c2ccc(F)cc2c1CCNCc1cccnc1 | -4 | 2
CC1CCCCN1CCCNC(=O)C(C1CCCC1)N1CCN(C(=O)COc2ccc(Cl)cc2)CC1 (configuration not stated) | -1 | 3
COP(=S)(OC)Oc1ccc(SC)c(C)c1 | -4 | -9
N=c1ccc(Br)cn1Cc1cccc2cccnc12 | 1 | -1
NC(Cc1ccc(F)cc1)c1csc(Nc2cnccn2)n1 (configuration not stated) | 13 | 13
CC(C)(C)OCC(O)CNC1CCCCC1 (configuration not stated) | -3 | -7
O=C1NC(=O)C(=Cc2cn(-c3ccccc3)nc2-c2ccccc2)C(=O)N1 | 16 | 7
CCOC(=O)N1CCC(NC(C)Cc2ncccc2C)CC1 (configuration not stated) | 10 | 9
CNC(=O)Oc1cccc2c1OC(C)(C)O2 | -5 | -10
ClC(Cl)=C(c1ccc(Cl)cc1)c1ccc(Cl)cc1 | -13 | -16
COCCOC(=O)C1C(=N)OC(C)=C(C(=O)OC(C)C)C12C(=O)Nc1ccccc12 (configuration not stated) | -2 | -3
Cc1nn(CC(=O)Nc2ccc(Cl)cc2C(=O)c2ccccc2)c(C)c1[N+](=O)[O-] | 2 | 2
CN(C)c1ccc(-c2nccn2CCc2cnc[nH]2)cn1 | 13 | 9
Cc1ccccc1S(=O)(=O)N1CCN(CCOC(c2ccccc2)c2ccc(F)c(F)c2)CC1 (configuration not stated) | -4 | 4
N#CC(c1ccc(F)cc1)N1CCNCC1 (configuration not stated) | 0 | 5
CC(c1nccs1)N(C)CCc1cc(F)ccc1F (configuration not stated) | 11 | 8
Cc1ccc2c(c1)C(c1ccccc1)=NCC(=O)N2C | -1 | -4
C/C(=C\c1ccco1)CN1CCC2(CCNCC2)C1 | 21 | 13
Nc1nc2ccc(-c3cccc4c3CCNC4)cc2s1 | 5 | 0
COc1ccc(C(=O)N(Cc2cc(NC(=O)C3CCC3)ccc2N(C)C2CCN(C)CC2)CC(C)C)cc1 | 7 | 8
Cc1cc(C2C[C@H]3CC[C@@H](C2)N3Cc2cc3n(n2)CCCNC3)ccc1F (some centres not stated) | -1 | -8
Cc1ccc(-n2nnnc2CN2CCN(C(=O)COc3ccccc3)CC2)cc1 | -1 | -3
Fc1ccc(CN2CCCC3(CCN(c4ncccn4)C3)C2)cc1 (configuration not stated) | 19 | 6
CC(=O)Nc1ccc(CNC(=O)CN2CC=C(c3cnn(C)c3)CC2)cc1 | 17 | 1
Cc1nn(Cc2ccccc2)c(C)c1C(=O)O | -3 | 8
CN1CCN(P(=S)(C=C2N(C)c3ccccc3C2(C)C)c2ccccc2)CC1 (configuration not stated) | -1 | -1
CCc1nccc(CN2CC[C@@H](c3cccc(OC)c3)[C@H](O)C2)n1 | 11 | 7

Structures from the list above that have an aryl methoxy group, in the order listed:
SMILES | NPYLR7 agonist | NPYLR7 agonist max-min
COc1ccc(C(=O)N(Cc2cc(NC(=O)C3CCC3)ccc2N(C)C2CCN(C)CC2)CC(C)C)cc1 | 7 | 8
CCc1nccc(CN2CC[C@@H](c3cccc(OC)c3)[C@H](O)C2)n1 | 11 | 7

(list continues)
SMILES | NPYLR7 agonist | NPYLR7 agonist max-min
CC1CC(C)CN(CC(=O)c2ccccc2Br)C1 (configuration not stated) | -1 | -1
CN1CCN(c2ccc(Cl)cc2N)CC1 | -1 | -3
CNC(=O)[C@@H]1[C@H]2CNCCN2C[C@H]1c1ccccc1 | 3 | 14
Cc1cnc(CNC(=O)c2nn(Cc3cccc(Oc4ccccc4)c3)c3ccccc23)cn1 | 4 | 11
O=C(c1cnn2c1CCCC2)N1C[C@H]2C[C@@H](C1)c1cccc(=O)n1C2 | -3 | -3
C[N+]1=Cc2cc3c(cc2CC1)OCO3 | -1 | -3
Cc1nnc(NC(=O)c2cccn(Cc3ccccc3)c2=O)s1 | 15 | 8
Cc1ccc2[nH]cc(CN(C)CC3CCCCO3)c2c1 (configuration not stated) | 6 | -4
CCC1CN(Cc2ccccc2)CCN1C(=O)COc1ccc(F)cc1 (configuration not stated) | 9 | 10
O=S(=O)(c1ccc(Oc2ccccc2)cc1)N1CCN(CCOC(c2ccc(Cl)cc2)c2ccc(Cl)cc2)CC1 | 20 | 11
O=C(Nc1ccc(=O)n2c1[C@@H]1C[C@@H](CN(C(=O)NC3CCCCC3)C1)C2)c1cncnc1 | -7 | -12
O=C(Nc1ncc([N+](=O)[O-])s1)c1cccn(Cc2ccc(Cl)cc2)c1=O | 15 | 8
Oc1ccccc1N1CCN(Cc2ccc(Br)cc2)CC1 | 7 | 2
CC(C)Oc1cccc(C(=O)C2CCCN(Cc3ccccc3O)C2)c1 (configuration not stated) | 0 | -1
Cc1ccccc1C(=O)N1CCSC12CCNCC2 | 12 | 20
COC(=O)CC(=O)Nc1ccc2[nH]cc(CCN3CCCC3)c2c1 | 21 | 10
Cc1cccc(COC(CN2CCN(C(=O)Cc3ccc(F)cc3)CC2)c2ccc(Cl)cc2)c1 (configuration not stated) | -2 | 4
CC(C)(N)Cc1ccccc1Cl | -11 | -15
O=c1cccc2n1C[C@@H]1C[C@H]2CN(Cc2cn[nH]c2-c2ccc(F)cc2)C1 | 6 | 3
Cc1ccc(-n2c(CN)nc3ccccc3c2=O)cc1 | -16 | -20
C=CCN1C(=O)C2(c3ccccc31)c1c(cc(C)n(Cc3ccco3)c1=O)OC(=N)C2C(=O)OC (configuration not stated) | -6 | -9
O=C(O)CN1C(=O)CSC(c2ccccc2F)c2c(-c3ccccc3)nn(-c3ccccc3Cl)c21 (configuration not stated) | -4 | -13
O=c1[nH]c(=S)[nH]c(O)c1N=Nc1ccc(SC(F)F)cc1 | 4 | 3
CCOc1cc2c(cc1Cn1cc(C(N)=O)cn1)OC(C)C2 (configuration not stated) | -18 | -20
Cc1cc(C)cc(NC2=NCCCS2)c1 | 6 | 6
CC[C@H]1CN2CCC1C[C@@H]2[C@@H](O)c1ccnc2ccc(OC)cc12 (some centres not stated) | 2 | -11
Nc1cncc(-c2cccc3c2CCNC3)c1 | 3 | 1
CC(C)(C)n1ncc(C(=O)O)c1-c1ccccc1 | -3 | -1
CC(C)N(C(C)C)C(C(=O)NC1CN2CCC1CC2)c1ccccc1 (configuration not stated) | 2 | -1
CCCN[C@@H]1CCc2c(OC)cccc2[C@@H]1C | 18 | 15

Reformatted: entries from further up.
Cc1ccc(-n2nnnc2CN2CCN(C(=O)COc3ccccc3)CC2)cc1
- NPYLR7 agonist: -1
- NPYLR7 agonist max-min: -3

Fc1ccc(CN2CCCC3(CCN(c4ncccn4)C3)C2)cc1 (configuration not stated)
- NPYLR7 agonist: 19
- NPYLR7 agonist max-min: 6

CC(=O)Nc1ccc(CNC(=O)CN2CC=C(c3cnn(C)c3)CC2)cc1
- NPYLR7 agonist: 17
- NPYLR7 agonist max-min: 1

Cc1nn(Cc2ccccc2)c(C)c1C(=O)O
- NPYLR7 agonist: -3
- NPYLR7 agonist max-min: 8

Going on with the list:
SMILES | NPYLR7 agonist | NPYLR7 agonist max-min
O=c1[nH]cnc2nc(N3CCNCC3)[nH]c12 | 12 | 6
CSc1ncc(C(=O)N[C@H]2C[C@H]3CN(C)CCN3C2)c(=O)[nH]1 | 5 | 5
CC(Cc1ccccc1S(=O)c1ccccc1)N(C)C (configuration not stated) | 1 | 1
Cc1cccc(OCC(=O)N2CCN(Cc3ccc(-c4noc(-c5cccs5)n4)cc3)CC2)c1 | 4 | 1
CC(=O)OC1CC2CC(OC(=O)COc3ccc(C)c(C)c3)CC1N2C (configuration not stated) | 2 | 4
CN1CCc2cc3c(cc2C1O)OCO3 (configuration not stated) | -1&-9 | -8&-14
C=CCOC(=O)N1CCN2CCN(C)CC2C1 (configuration not stated) | 7 | 5
C/C=C1/CN2C3CC1C(CO)(C(=O)OC)C2Cc1c3n(C)c2ccccc12 (configuration not stated) | -9 | -15
NC(=O)c1ccc(OCC(O)CN2CC=C(c3ccc(F)cc3)CC2)cc1 (configuration not stated) | -1 | 26
O=S(=O)(c1cccc(Br)c1)N1CCN(CCOC(c2ccccc2)c2ccc(F)c(F)c2)CC1 (configuration not stated) | -3 | 4
CC(=O)NC1CCSC1=O (configuration not stated) | -2 | -7
Cc1cc(Cl)ccc1C(=O)C1CCCN(CCCn2cccn2)C1 (configuration not stated) | 8 | -7
COc1ccc(C=C2CC3C4CC=C5CC(O)CCC5(C)C4CCC3(C)C2O)cc1 (configuration not stated) | 14 | 12
CN1[C@H]2CC[C@@H]1CN(c1cc(Sc3cccs3)nc(N)n1)CC2 | -3 | 6
CCCCSP(=O)(SCCCC)SCCCC | -6 | -12
FC(F)(F)CCc1ccnc(N2CCOC3(CNCCOC3)C2)n1 (configuration not stated) | 0 | -13
CCc1cn[nH]c1C1CCNCC1 | 4 | 1
COc1c2c(c(CC=C(C)C)c3oc(=O)c(-c4ccc(O)cc4)c(O)c13)OC(C)(C)C=C2 | -4 | -12
COCCOC(=O)C1C(=N)OC(C)=C(C(C)=O)C12C(=O)Nc1ccc(Br)cc12 (configuration not stated) | 0 | -2
N#Cc1ccc(N2Cc3ccccc3C2=N)cc1 | 1 | 12
CN(C)CCN(C(=O)Cc1ccc(F)cc1)c1nc2c(S(C)(=O)=O)cccc2s1 | -13 | -16
CC(C)Oc1cccc(C(=O)C2CCCN(Cc3cccnc3)C2)c1 (configuration not stated) | 11 | 12
CC(=O)Nc1ccc(CN2CCCC(C(=O)c3cccc(Cl)c3)C2)cc1 (configuration not stated) | 21 | 4
CC(C)N(C(=O)CN1CC=C(c2c[nH]c3ccccc23)CC1)C(C)C | -18 | -22
CCCC(CCC)NC1CCN(CC(C)C)CC1 | 1 | 1
O=C(CN1CCCCC1c1cccnc1)c1ccccc1 (configuration not stated) | 1 | 2
c1cnc(N2CCC3(CCCN(CC4CC4)C3)C2)nc1 (configuration not stated) | 12 | 5
O=C(c1n[nH]c(=O)[nH]1)N1C2CCC1c1ccccc12 | 7 | 4
N#Cc1cccc(C(=O)NS(=O)(=O)c2ccc(C#N)c(Cl)c2)c1 | 7 | 4
CCC(C(=O)NC(C)(C)C)N1CC=C(c2cnn(C)c2)CC1 (configuration not stated) | 3 | 2

Among those listed so far, these contain a furan ring, fused or not:
SMILES | NPYLR7 agonist | NPYLR7 agonist max-min
C/C(=C\c1ccco1)CN1CCC2(CCNCC2)C1 | 21 | 13
C=CCN1C(=O)C2(c3ccccc31)c1c(cc(C)n(Cc3ccco3)c1=O)OC(=N)C2C(=O)OC (configuration not stated) | -6 | -9

The list continues:
SMILES | NPYLR7 agonist | NPYLR7 agonist max-min
O=C(Cc1ccccc1)N1CCCC(N2CCN(CCOc3ccccc3)CC2)C1 (configuration not stated) | 13 | 28
CC(C)c1nccc(CN2CC[C@@]3(O)CCCC[C@H]3C2)n1 | 6 | 4
Cc1cccc(-n2nc(C(C)(C)C)c3c2N(CC(=O)NCc2ccco2)C(=O)CSC3c2cccc(Cl)c2)c1C (configuration not stated) | 17 | 3
COc1cc(C)c(CN2CCNCC2)cc1OC | 2 | -3
CCCN1CCCN(C(=O)Cc2c[nH]c3ccccc23)CC1 | 6 | 4
CCOc1ccc(NC(=O)c2cc(C)n(C(C)C)c2C)cc1 | -5 | -6

3 structures from above, sorted by heavy-atom count, lowest first:
SMILES | NPYLR7 agonist | NPYLR7 agonist max-min
COc1cc(C)c(CN2CCNCC2)cc1OC | 2 | -3
CCOc1ccc(NC(=O)c2cc(C)n(C(C)C)c2C)cc1 | -5 | -6
Cc1cccc(-n2nc(C(C)(C)C)c3c2N(CC(=O)NCc2ccco2)C(=O)CSC3c2cccc(Cl)c2)c1C (configuration not stated) | 17 | 3

Only part of the results is shown; count on the stated rates, not on these rows.
